NPR1 antag = antagonists of human natriuretic peptide receptor Npr1; P16066; 1.6% of 76,000 active; Potency, µM (highest dose often 46.3 µM), for the others: at the highest dose activity change, negative = inhibition, actives largely listed as inhibitors; HEK293 hNpr1 GloSensor cGMP, ANP-stimulated luminescence; active = well fitted inhibition curve with a large enough effect; inconclusive = small, poorly fitted or top-dose-only effect; inactive = no such curve, though single readings can be large or run the other way;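 further: nearly all actives have a fitted effect of over 60% in size; nearly all hits also lower the signal before the agonist is added; a reference antagonist and vehicle were the controls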
Target sequence (P16066 whole entry, looked up): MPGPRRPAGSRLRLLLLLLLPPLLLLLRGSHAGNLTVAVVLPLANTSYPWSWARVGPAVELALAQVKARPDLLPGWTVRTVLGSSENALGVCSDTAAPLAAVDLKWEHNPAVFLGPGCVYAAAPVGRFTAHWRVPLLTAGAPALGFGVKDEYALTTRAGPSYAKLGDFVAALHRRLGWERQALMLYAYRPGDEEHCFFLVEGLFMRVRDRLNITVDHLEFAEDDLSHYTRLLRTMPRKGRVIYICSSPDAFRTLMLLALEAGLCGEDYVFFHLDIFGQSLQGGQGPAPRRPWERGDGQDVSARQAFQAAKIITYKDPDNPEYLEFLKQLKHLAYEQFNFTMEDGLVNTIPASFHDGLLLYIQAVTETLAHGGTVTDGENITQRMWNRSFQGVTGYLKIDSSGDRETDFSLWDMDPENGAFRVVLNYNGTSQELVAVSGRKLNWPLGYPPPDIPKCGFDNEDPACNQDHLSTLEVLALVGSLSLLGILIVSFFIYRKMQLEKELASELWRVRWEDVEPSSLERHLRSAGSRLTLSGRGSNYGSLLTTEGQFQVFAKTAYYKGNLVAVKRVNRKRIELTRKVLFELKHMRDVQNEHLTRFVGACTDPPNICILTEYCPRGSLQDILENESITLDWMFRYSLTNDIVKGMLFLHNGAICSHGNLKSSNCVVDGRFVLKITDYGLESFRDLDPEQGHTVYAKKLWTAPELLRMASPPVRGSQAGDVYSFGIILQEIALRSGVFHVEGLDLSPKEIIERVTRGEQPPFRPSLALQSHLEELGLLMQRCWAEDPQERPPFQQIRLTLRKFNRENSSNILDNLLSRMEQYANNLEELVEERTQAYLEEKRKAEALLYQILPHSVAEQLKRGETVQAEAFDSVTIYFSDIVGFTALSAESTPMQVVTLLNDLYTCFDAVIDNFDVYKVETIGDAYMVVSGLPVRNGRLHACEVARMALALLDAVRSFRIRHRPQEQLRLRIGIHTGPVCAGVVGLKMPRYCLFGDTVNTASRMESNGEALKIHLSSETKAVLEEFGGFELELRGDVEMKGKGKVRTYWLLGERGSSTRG
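HEK293 cells stably expressing human Npr1 and cGMP GloSensor pGS-40F, loaded 2 h with 2% GloSensor reagent, given compound 30 min at room temperature. Luminescence read before and 20 min after 0.1 nM hNppA.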
* marks the source's active call; other numbers are inactive results; ? = inconclusive; [ ] = remark or other dose. On the % scale 0 is the no-effect control and ±100 the full control effect; potency means the concentration at half of the fitted maximal effect.

NPR1 antag | Structure
0% | CS(=O)(=O)N1CCCN(C(=O)Nc2ccccc2)CCNC(=O)CC1c1ccccc1 (stereo unspecified)
0% | Cc1nn(C)c(C)c1CCNC(=O)CN1CC2CC(C1)[C@H]1CCCC(=O)N1C2 (stereo partly specified)
1% | Cc1ccc(C(=O)NCc2cccnc2N(C)C2CCCCC2)cn1
-5% | Cc1nccc(-c2ccccc2)c1C(=O)N(C)Cc1csc(C(C)C)n1
-1% | COCc1noc([C@@H]2CC(F)(F)CN2C(=O)c2ccc(C#N)cc2)n1
6% | Cc1ccc(OCC(=O)N2CCC(c3nn(C)c4c3COCC4)CC2)cc1
-6% | O=C(CCC1CCN(S(=O)(=O)c2ccccc2)CC1)N1CCc2ccccc2C1
0% | COc1ccc(NC(=O)Cn2c(=O)c(-c3noc(C)n3)c3n(c2=O)CCCC3)cc1
4% | Cc1ccc(-n2nc3n(c2=O)CCN(C(=O)c2ccc(Cl)nc2)C3)cc1
-26% | Cc1cc(CNc2ncnc3c2CCN(C(=O)c2ccoc2)CC3)no1
-3% | Cc1[nH]c2ccc(C(=O)N3CCC4(CCCN(C)C4=O)C3)cc2c1C (stereo unspecified)
3% | Cc1nc(C(=O)N2CC[C@H](NC(=O)c3cnccn3)C[C@H]2C(=O)N[C@H](C)C(N)=O)cs1
8% | COc1ccc(C(=O)N2CCCOCCNC(=O)CC2)cc1F
1% | O=C(Nc1ccc([C@@H](O)[C@H]2COCC(=O)N2Cc2ccccc2F)cc1)c1ccc2c(c1)OCO2
4% | Cc1cc(CN2C[C@@H](CO)[C@H](C(=O)NC3CC3)C2)n(C)n1
? | COc1cccc(CNC(=O)Nc2cccc(-c3ccc(N4CCOCC4)nn3)c2)c1
-1%[70.6 µM] | O=C(NC[C@H]1Cn2ccnc2CO1)c1ccc(Cl)cc1
-1%[70.6 µM] | O=C(N[C@H]1CO[C@H]2[C@@H]1OC[C@@H]2n1nnnc1-c1ccc2c(c1)OCO2)C1CC1
4% | COC(=O)CCNC(=O)C1c2ccccc2C(=O)N(C2CCCCC2)C12CCCCC2 (stereo unspecified)
-1% | Cc1ccc(NC(=O)[C@H]2CN(Cc3ccccc3)C[C@H]2C(=O)O)cc1
-16% | O=C(COc1ccccc1)N1CCCN(c2cc(-c3ccc(Cl)cc3)[nH]n2)CC1
-2% | CC(=O)c1ccc(NC(=O)Cn2c(-c3cnccn3)nc(C)c(C)c2=O)cc1
0% | CC(C)c1noc(-c2ccn3c(CNC(=O)c4ccoc4)nnc3c2)n1
2% | C=CCN(Cc1cccc(OCC)c1)C(=O)CC1C(=O)N(C)C(=O)N1C (stereo unspecified)
1% | Cc1c(-c2ccccc2)[nH]c2c(CNC(=O)Cn3ccc(=O)[nH]c3=O)cc(Cl)cc12

As a working copy, some entries already given.
NPR1 antag | Structure
0% | CS(=O)(=O)N1CCCN(C(=O)Nc2ccccc2)CCNC(=O)CC1c1ccccc1 (stereo unspecified)
0% | Cc1nn(C)c(C)c1CCNC(=O)CN1CC2CC(C1)[C@H]1CCCC(=O)N1C2 (stereo partly specified)
1% | Cc1ccc(C(=O)NCc2cccnc2N(C)C2CCCCC2)cn1

The list continues.
NPR1 antag | Structure
-11% | Cc1noc(C2CCCCCN2C(=O)NCC(C)C)n1 (stereo unspecified)
-1% | Cc1cc(C(=O)N2CC[C@@H]3CN(S(C)(=O)=O)[C@@H]3C2)c(C)o1
-20% | COc1ccc(-c2cc(N3CCN(C(=O)c4ccccc4F)CC3)n[nH]2)cc1
3% | Cc1ccc2c(c1)N(C(=O)Cn1ccn3nc(-c4ccc(F)cc4)c(CO)c3c1=O)CCO2
-1%[70.6 µM] | CS(=O)(=O)N[C@H]1[C@H](O)[C@H](O)C[C@@H]1c1ccccc1
-10% | Cc1ccccc1Cn1cc(-c2ccncc2)cc1C(=O)NCc1ccncc1
-3% | Cc1ccc(NC(=O)[C@@H]2CNC[C@H](C(=O)NCc3ccccn3)C2)cn1
8% | Cc1noc(C)c1CC(=O)N1C[C@@H](Oc2ccccc2)C[C@@H]1C(=O)N1CCOCC1
5% | Cc1ccc(CNC(=O)NCC(=O)N2CCCCCNC(=O)CC2c2ccccc2)cc1 (stereo unspecified)
3% | Cc1cc(C(=O)N2CCC(N3C(=O)C(OCC4CC4)C34CCOCC4)CC2)nn1C (stereo unspecified)
2% | COc1ccccc1C(=O)N1CCCN(c2nnc3cccc(C)n23)CC1
-24% | COc1ccc(Cl)cc1C(=O)N1CCC2(CC1)NC(=O)N(c1ccccc1)N2
5% | CCCN(CC1CCOC1)C(=O)c1ccc(F)c(F)c1 (stereo unspecified)
8% | CCCN1C(=O)C(CC(=O)N2CCOCC2)Sc2ncccc21 (stereo unspecified)
-2% | CC(C)Oc1cccc2c1c(NC(=O)C1CCN(C)C1)nn2Cc1ccccc1 (stereo unspecified)
-8% | Cc1ncoc1C(=O)NCC12CCC=C1N(C)C(=O)CC2 (stereo unspecified)
-10% | COc1cccc(S(=O)(=O)N2CCn3nnc(CCC(=O)NC4CC4)c3C2)c1
-10%[70.6 µM] | Cc1ccc(CN2CCc3ncc(C(=O)NCCOc4ccccc4)n3CC2)o1
-4%[70.6 µM] | Clc1ccc(-c2cnc([C@@H]3COCCN3Cc3ccccn3)[nH]2)cc1
4% | O=C1NCCCCCCN(C(=O)NCCc2ccccc2)[C@H]2CCCC[C@@H]12
0% | CN1CCC(OC2CCN(C(=O)c3cccc(Br)c3)CC2)CC1
? | O=c1n(-c2ccc(C(F)(F)F)cc2)nc2n1CCN(S(=O)(=O)c1cccs1)C2
-1% | O=C(CCc1ccccc1)N1CCCC2(C1)Nc1cccnc1NC2=NC1CCCC1 (stereo unspecified)
-6%[70.6 µM] | O=C(NCc1ccncc1)[C@@H]1C[C@@H](c2ccc(F)cc2)N([S+](=O)([O-])c2cccnc2)C1
2% | COc1ccc(CNC(=O)[C@H]2CNC[C@H](C(=O)N3CCCC3)C2)c(F)c1F

Next section:
NPR1 antag | Structure
0% | CN1c2cc(C(=O)NCCc3ccccc3)ccc2C(=O)N2CCCCC21 (stereo unspecified)
-6% | CN1CCC(NC(=O)c2nc3nc(-c4ccccc4)c(-c4cccc(O)c4)cc3n2C)CC1
0% | C=CCN1CC2(CCC1=O)CCN(C(=O)CC1CCCCN1C)CC2 (stereo unspecified)
-4% | Cc1csc(CCNC(=O)C[C@H]2NC(=O)c3ccccc3NC2=O)n1
? | COc1cccc(C(=O)N2CCCN(c3cc(-c4ccc(Cl)cc4)[nH]n3)CC2)c1
1% | Cc1cn2nc(C(=O)NCC(C)c3ccccc3)cc2c(N2CCSCC2)n1 (stereo unspecified)
-5% | c1ccc(-c2ccnc(NCCOc3cccc4cccnc34)n2)nc1
0%[70.6 µM] | Cc1noc(C)c1-c1cc2c(cc(C)n2CCN(C)C)c(-c2ccccc2O)n1
0% | Cc1nc(CCNC(=O)C2CNCCO2)sc1C (stereo unspecified)
-6% | COc1ccc(C2Cn3nnc(C(=O)N4CCC(C(=O)NC5CCCC5)CC4)c3CO2)cc1 (stereo unspecified)
0% | Cc1cc(C(=O)N2C[C@@H](CO)[C@H](c3ccccn3)C2)no1
2% | COc1ccc(C[C@H](NC(=O)C2=C[C@@H](NC(=O)c3cccc(F)c3)[C@@H](O)[C@H](O)C2)C(N)=O)cc1
2% | Cc1ncsc1C(=O)N1CC(CNC(=O)C2CCOCC2)C2(C1)CN(c1ccccc1)C2 (stereo unspecified)
-16%[70.6 µM] | O=c1[nH]c2cccnc2n1C1CCCCC1
-4%[70.6 µM] | O=C(O)c1ccc(-c2nc3ccncc3[nH]2)cc1
-2% | COc1cccc(OCC(=O)c2ccc3c(c2)N(CCCC(=O)NCc2ccccc2)C(=O)CO3)c1
-7% | CC(C)=CCn1c(-c2ccc(F)cc2)cn2cc(C(=O)N3CCCCC3)nc2c1=O
-20% | O=C(Cc1cccc(F)c1)NCCn1cccc1-c1nc(-c2ccc3c(c2)OCO3)no1
0%[70.6 µM] | CN(Cc1cccnc1)C1CCCc2ccccc21 (stereo unspecified)
-9% | O=C(NCCc1noc(-c2cccnc2)n1)c1c2c(nc3ccccc13)CCCC2
-6% | Cn1c(C(=O)N2CC[C@@](C)(O)[C@@H](O)C2)ccc1-c1ccccc1
2% | CCn1ccc2sc(C)c(C(=O)O)c2c1=O
1% | COc1cccc(-c2cc(C(=O)N3CCCC3c3nncn3C(C)C)[nH]n2)c1 (stereo unspecified)
1% | O=C(c1cccs1)N1CCOC(CCc2ccccc2)C1 (stereo unspecified)
-8% | O=C(CC1C(=O)NCCN1Cc1cccc(Oc2ccccc2)c1)NC1CCOCC1 (stereo unspecified)

Some of these compounds in order of formula weight, highest first.
NPR1 antag | Structure
2% | Cc1ncsc1C(=O)N1CC(CNC(=O)C2CCOCC2)C2(C1)CN(c1ccccc1)C2 (stereo unspecified)
-6% | CN1CCC(NC(=O)c2nc3nc(-c4ccccc4)c(-c4cccc(O)c4)cc3n2C)CC1
-9% | O=C(NCCc1noc(-c2cccnc2)n1)c1c2c(nc3ccccc13)CCCC2
1% | Cc1cn2nc(C(=O)NCC(C)c3ccccc3)cc2c(N2CCSCC2)n1 (stereo unspecified)
-4% | Cc1csc(CCNC(=O)C[C@H]2NC(=O)c3ccccc3NC2=O)n1

(continued)
NPR1 antag | Structure
11µM* | CCOc1ccc(C(=O)N2CCCN(c3cc(-c4ccc(Cl)cc4)[nH]n3)CC2)cc1OCC
8%[70.6 µM] | COCCNC(=S)N[C@H]1C[C@H]2C(=O)NC[C@@H](CCC(=O)NCc3ccccc3)N2C1
3% | COc1ccccc1CN1CC(C(=O)NCc2ccncc2)C2(CCOCC2)C1 (stereo unspecified)
-13%[70.6 µM] | CN(C)CCOCC1(C)COc2ccc(C(=O)Nc3cccc(Cl)c3)cc2N1 (stereo unspecified)
-5% | COc1ccc(C(=O)N2CCc3nc(C(C)C)nc(-c4ccc(OC)cc4)c3C2)cc1
3% | O=C(c1cc(COc2ccccc2F)[nH]n1)N1CCCC(CN2CCOCC2)C1 (stereo unspecified)
-3% | COCC1(c2nc(-c3ccc(C(N)=O)cc3)nn2-c2ccc(OC)cc2)CC1
10% | CN(C)C[C@@H]1CN(S(C)(=O)=O)C[C@H]1NC(=O)c1ccc(Cl)cc1
-1% | CCC(C)NC(=O)Cn1ccn2nc(-c3ccc(F)cc3)c(CO)c2c1=O (stereo unspecified)
-2% | O=C(N[C@H](c1ccccn1)C1CC(O)C1)c1cccc(Cn2cccn2)c1 (stereo partly specified)
-1% | COc1ccc(C(=O)N2CCOCCNC(=O)CC2)c(OC)c1
-5% | Cc1cc(Cl)ccc1S(=O)(=O)N(C)CC1CCOCC1
4% | Cc1[nH]cnc1CN1C[C@@H]2CN(C(=O)CCC3CC3)C[C@]2(C(=O)O)C1
0% | COCCOC1CCN(C(=O)c2cccn2C)CC1
2% | Cc1ccc(C(=O)N2CCCC(c3nn[nH]n3)C2)cn1 (stereo unspecified)
-16% | CCCC1c2nccn2CCCN1C(=O)c1ccc(OC)nc1OC (stereo unspecified)
-1% | COCC(=O)Nc1ccc(-c2noc([C@@H]3CCCN3Cc3ccc(S(C)(=O)=O)cc3)n2)cn1
-14% | O=C(COc1ccccc1)N1CCCC(Nc2ccc(F)cc2)C1 (stereo unspecified)
-1% | CC(=O)N1CC2(CCN(Cc3ncc[nH]3)CC2)CC1C(=O)O (stereo unspecified)
-14% | CN(C)C(=O)c1ccc(OC2CCN(C(=O)c3ccc(Br)cc3)CC2)nc1
-19%[70.6 µM] | COc1cccc(CNCC2(COc3ccccc3)C[C@@H](O)[C@@H](O)C2)c1 (stereo partly specified)
1% | O=C(NC1CC1)[C@@H]1C[C@H](Oc2cccnc2)CN1C(=O)c1ccccn1
2% | Cn1ccnc1C(O)c1cc2n(n1)CCN(S(=O)(=O)C1CC1)C2 (stereo unspecified)
-2% | COCc1nc(C2CC(=O)N(C3CCCCC3)C2)no1 (stereo unspecified)
6% | O=C(Cn1c(=O)oc2ccccc21)NC1CCc2nn(CC3CC3)c(=O)n2CC1 (stereo unspecified)

Structural class, the compounds so far containing bromine (2)
NPR1 antag | Structure
0% | CN1CCC(OC2CCN(C(=O)c3cccc(Br)c3)CC2)CC1
-14% | CN(C)C(=O)c1ccc(OC2CCN(C(=O)c3ccc(Br)cc3)CC2)nc1

The results go on.
NPR1 antag | Structure
1%[70.6 µM] | CN1C[C@H](NC2CCOCC2)CCC[C@@H](C(=O)NC2CC2)CC1=O
? | O=C1Nc2ccccc2CC12CCN(Cc1ccc(OC(F)(F)F)cc1)C2 (stereo unspecified)
-1% | O=C(NC1CC1)[C@@H]1CN(Cc2ccc(OC(F)(F)F)cc2)C[C@H]1CO
5%[70.6 µM] | COc1ccc(-c2noc(C(=O)O)c2[C@@H](C)NS(=O)(=O)c2ccccc2)cc1
3% | NS(=O)(=O)c1ccc(CNC(=O)C[C@H]2NC(=O)c3ccccc3NC2=O)cc1
10% | Cc1cc(C(=O)N2CCCn3ccnc3C2c2cnn(C)c2)n[nH]1 (stereo unspecified)
-3% | O=c1[nH]c(N2CCOCC2)nc2c1CCN(Cc1ccc(F)c(Br)c1)CC2
-17% | Cc1ccc(-c2ncc(C(=O)Nc3ccccc3Br)c(-c3ccncc3)n2)cc1
3% | COc1cccc(C2Cn3nnc(-c4nc(-c5ccc(SC)cc5)no4)c3CO2)c1 (stereo unspecified)
-1% | O=C(c1cscn1)N1CCC(F)(c2nc(-c3ccncc3)no2)CC1
5% | O=C(Cc1ccccc1F)N1CCC(c2noc(-c3ccncc3)n2)C1 (stereo unspecified)

An excerpt. The share of hits here may be higher or lower than overall.
